# Source: PubChem BioAssay
# miR-21 FLuc – qHTS Assay for Modulators of miRNAs and/orActivators of miR-21. HeLa miR-21 FLuc reporter, luciferase, 48 h. Potency, µM (doses to about 38.3 µM), without a hit: top-dose reporter change, positive = more light. 340,000 tested, under 10 active. AID 2288, 2010; active = well fitted rising curve with a large enough effect; inconclusive = small, poorly fitted or top-dose-only effect; inactive = no such curve, though single readings can be large or run the other way;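 also: % of control where 0% means no effect; miR-21 action dims this reporter so a rising signal means less miR-21 action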
#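 Luminescence from a firefly luciferase reporter carrying a miR-21 binding site downstream, stably expressed under a CMV promoter in HeLa cells that make miR-21 endogenously, reports miRNA modulation after 48 h compound exposure up to approximately 40uM final.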
# * marks the source's active call; other numbers are inactive results; ? = inconclusive. Some of the compounds tested (hit frequency here may not be typical).
no.	SMILES	miR-21 FLuc
1	CCOC(=O)c1cnc(NCc2ccccc2OC)c2ccccc12	-6%
2	CC(=O)c1ccc(NC(=O)c2ccc(-c3nc(CSc4ccc(C)cc4)c(C)o3)cc2)cc1	7%
3	CCC(C)Sc1c(C(C)C)cnc2c1c(=O)n(C)c(=O)n2C (stereo not drawn)	4%
4	CCN1CCN(C(c2ccccc2)c2c(O)cc(C)n(Cc3ccco3)c2=O)CC1 (stereo not drawn)	-4%
5	COc1ccc(NC(=O)Cn2nc(C)c3nn(-c4ccc(Cl)cc4)c(C)c3c2=O)cc1	7%
6	CCOC(=O)c1ccc(NC(=O)Cc2ccc(-n3c(CC)nc4cccnc43)cc2)cc1	1%
7	O=C(Cc1ccc(Cl)cc1)Nc1ccc2nn(-c3ccccc3)nc2c1	-15%
8	CC(C)OCCCNc1sc(S(=O)(=O)c2ccccc2)nc1S(=O)(=O)c1ccc(Cl)cc1	10%
9	CCC1CCCCN1CCCNC(=O)c1c(C)oc2ncn(CC(C)C)c(=O)c12 (stereo not drawn)	0%
10	CC(=O)c1ccc(N2CCN(C(=O)CCCCn3c(=O)[nH]c4ccccc4c3=O)CC2)cc1	0%
11	COc1cc(Nc2nc(SCc3ccc(Cl)cc3)nc3ccccc23)cc(OC)c1	7%
12	O=C(Cn1nc(N2CCN(c3ccccc3)CC2)ccc1=O)NCc1ccccc1F	-3%
13	COc1ccc(-c2nnc(SC(C)C(=O)O)o2)cc1 (stereo not drawn)	-6%
14	Cc1ccc2occ(CC(=O)Nc3c(C(=O)Nc4ccc(Cl)cc4)oc4ccccc34)c2c1	-21%
15	COc1ccc(NC(=O)[C@H](Cc2ccccc2)N2Cc3ccccc3C2=O)cc1OC	-9%
16	Cc1ccc(C)c(N2CCN(C(=O)CN3C(=O)CSc4c3c(C)nn4-c3ccccc3)CC2)c1	-4%
17	COc1cccc(-c2cc(C(F)(F)F)nc(-n3nc(C)c(Br)c3C)n2)c1	-3%
18	Cc1noc(C(=O)Nc2ccc(Cl)cc2)c1Cl	-2%
19	CCOc1ccc(NC(=O)CSc2c3c(nc4ccccc24)CCCC3)cc1	29%
20	CC(=O)Nc1ccc(NS(=O)(=O)c2ccc3c(c2)CC(C)N3C(=O)C2CCC2)cc1 (stereo not drawn)	8%

# Copied from the list.
# O=C(Cn1nc(N2CCN(c3ccccc3)CC2)ccc1=O)NCc1ccccc1F in miR-21 FLuc shows -3%
# CCN1CCN(C(c2ccccc2)c2c(O)cc(C)n(Cc3ccco3)c2=O)CC1 (stereo not drawn) in miR-21 FLuc shows -4%
# CCOC(=O)c1ccc(NC(=O)Cc2ccc(-n3c(CC)nc4cccnc43)cc2)cc1 in miR-21 FLuc shows 1%
# COc1cc(Nc2nc(SCc3ccc(Cl)cc3)nc3ccccc23)cc(OC)c1 in miR-21 FLuc shows 7%
# Cc1noc(C(=O)Nc2ccc(Cl)cc2)c1Cl in miR-21 FLuc shows -2%
# COc1ccc(-c2nnc(SC(C)C(=O)O)o2)cc1 (stereo not drawn) in miR-21 FLuc shows -6%

# Going on with the list.
no.	SMILES	miR-21 FLuc
21	COc1ccc(NC(=O)c2c(NCc3cccs3)sc3c2CCCCC3)cc1	-30%
22	Cc1cccc(-n2c(=O)c3c4c(sc3n3c(C)nnc23)CCCC4)c1	-12%
23	COc1ccc(CNC(=O)CCC(=O)N2CC3CCCN3c3ccccc32)c(OC)c1 (stereo not drawn)	15%
24	Cc1ccc(C2Nc3ccccc3-n3c(-c4ccccc4)c4c(=O)n(C)c(=O)n(C)c4c32)cc1 (stereo not drawn)	7%
25	Brc1ccc(CN2CCc3nc(N4CCN(c5ncccn5)CC4)ncc3C2)cc1	13%
26	CCC(NC(=O)Nc1cc(Cl)ccc1OC)c1c(-n2cccc2)sc2c1CCN(C)C2 (stereo not drawn)	-17%
27	COc1ccc(Br)cc1C(=O)Nc1ccc(-c2nc3ncccc3o2)cc1C	0%
28	CC(=O)Nc1ccc(Nc2ncnc3c2c(-c2ccccc2)cn3-c2ccc(C)c(Cl)c2)cc1	14%
29	Cc1ccc(Nc2c3c(nc4nncn24)CCC3)cc1C	-6%
30	CCC1CN(C(=O)N2CCC(C(=O)NCc3cccc(F)c3)CC2)c2cc(C)ccc2O1 (stereo not drawn)	-1%
31	CC1(C)C(=O)N(CC(=O)Nc2cccc(F)c2)c2ccc(S(=O)(=O)N3CCCCC3)cc21	7%
32	Cc1ccc(-c2cc(C(=O)NCc3ccccc3)c3c(-c4ccc(C)cc4)[nH]nc3n2)cc1	2%
33	CCc1ccc(NC(=O)CSc2ccc(-c3cccs3)nn2)cc1	0%
34	COc1ccccc1OCCCn1c(C2CC(=O)N(c3ccccc3Cl)C2)nc2ccccc21 (stereo not drawn)	16%
35	COc1ccc(N2CCN(C(=O)c3cc4c(=O)oc5ccc(C)cc5c4s3)CC2)cc1	0%
36	O=C(Oc1ccc(F)cc1)c1nc(SCc2ccc(F)cc2)ncc1Cl	5%
37	Cc1ccc(C(=O)COC(=O)c2cc(-c3cccs3)nc3ccccc23)cc1	-35%
38	COc1ccccc1-c1ncnn1-c1sc2c(c1C#N)CCCCC2	-23%
39	CC(C)CCSc1nc2c(c(=O)n(C)c(=O)n2C)n1Cc1ccccc1Cl	-27%
40	CC(=O)c1cccc(NC(=O)c2sc(-n3nc(C)c(Cc4ccc5c(c4)OCO5)c3C)nc2C)c1	-6%
41	COc1ccc(Cn2ccnc2SCC(=O)NCc2ccccc2)cc1	10%
42	CC1CCCN(c2ncnc3c2nnn3C)C1 (stereo not drawn)	-21%
43	CCOC(=O)c1c(-c2ccc(OC)cc2)oc2ccc(OCc3ccc(F)cc3F)cc12	1%
44	Cc1ccc2c(c1)c(N1CCCC1=O)c(C(=O)Nc1ccc(F)cc1F)n2C	9%
45	CCC(C)NC(=O)c1sc2ncccc2c1-n1c(C)ccc1C (stereo not drawn)	16%
46	CCOc1ccccc1NC(=O)C1CCN(S(=O)(=O)c2c(C)noc2/C=C/c2ccco2)CC1	-1%
47	Cc1cccc(N2CCN(C(=O)c3cnc(N4CCCC4)nc3C)CC2)c1C	8%
48	O=S(=O)(c1ccc(F)cc1)N1CCC(n2c(C(F)(F)F)nc3cccnc32)CC1	10%
49	CCOC(=O)c1ccc(NC(=O)c2cc3sccc3n2Cc2ccc(Cl)cc2)cc1	10%
50	Cc1ccc(NC(=O)COCc2cc(-c3cccs3)on2)cc1Cl	-2%
51	O=C(Nc1ccc(OC(F)(F)F)cc1)c1cc(-c2ccc(Cl)cc2)on1	-3%
52	Cc1ccc(Cn2ccn(Cc3cccc(C(F)(F)F)c3)c(=O)c2=O)cc1	1%
53	Cc1cc(C)cc(Nc2cc(C(=O)NCCCN(C)C3CCCCC3)c3ccccc3n2)c1	?
54	CCCCOc1ccc(C2c3c(oc4ccccc4c3=O)C(=O)N2c2nc(C)c(C(=O)OCC)s2)cc1OC (stereo not drawn)	-1%
55	CCOC(=O)c1ccc2c(c1)N(Cc1cccc(OC)c1)C(=O)c1ccccc1S2(=O)=O	1%
56	CN1CCN(C(CNC(=O)C(=O)Nc2ccc(Cl)cc2)c2cccnc2)CC1 (stereo not drawn)	?
57	Cc1cccc(N2CCN(C(c3ccccc3)c3nnc(-c4ccccc4F)o3)CC2)c1C (stereo not drawn)	1%
58	Cc1cccc(Cc2c(C)nc3nc(SCC(=O)NCc4ccccc4)nn3c2C)c1	?
59	COc1ccc2occ(CC(=O)Nc3ccc(S(=O)(=O)Nc4nc(C)cc(C)n4)cc3)c2c1	1%
60	N#Cc1ccccc1NS(=O)(=O)c1ccc(N2CCCCS2(=O)=O)cc1	2%
61	COc1ccc(OC)c(NC(=O)Cn2ccn(-c3ccc(F)cc3)c(=O)c2=O)c1	16%
62	CCCNc1ccc(-c2nc(-c3ccco3)no2)cc1[N+](=O)[O-]	4%
63	COc1ccccc1CNC(=O)CCc1c(C)nc2c(c(C)nn2-c2ccc(C)c(C)c2)c1C	6%
64	CCc1ccc(Cn2nnc(C(=O)Nc3ccc(C)cc3)c2N)cc1	-9%
65	Cc1cccc(CNC(=O)C(=O)Nc2ccccc2C)c1	-2%
66	O=C(Nc1ccccc1)c1ccc2c(O)c(S(=O)(=O)c3ccc(Cl)cc3)c(=O)[nH]c2c1	3%
67	CSc1ncc2c(n1)-c1ccccc1N(Cc1ccccc1C)S2(=O)=O	-4%
68	Cc1cc(F)ccc1Nc1nc2ccccc2n2nnnc12	-14%
69	COc1ccc(C)cc1NC(=O)C1CCCN(S(=O)(=O)c2ccc3c(c2)oc(=O)n3C)C1 (stereo not drawn)	1%
70	COc1cc(-c2nc3cccc(C)n3c2Nc2ccc3c(c2)OCCO3)ccc1O	-23%
71	COc1cc(C(=O)NCCc2csc(-c3ccc(Cl)cc3)n2)cc(OC)c1OC	18%
72	COc1ccc(C(=O)Nc2cc(-c3nc4ccccc4s3)ccc2OC)cc1	0%
73	CC(=O)Nc1cccc(NC(=O)CSc2cn(CC(=O)N(C(C)C)C(C)C)c3ccccc23)c1	-2%
74	COc1cc(NC(=O)Cn2nc(-c3ccc(C)c(C)c3)ccc2=O)cc(OC)c1	4%
75	Cc1cc2c(cc1NS(=O)(=O)c1cccc(C#N)c1)n(C)c(=O)c(=O)n2C	-5%
76	CCc1ccc(CNC(=O)c2cc(-c3ccc(Cl)s3)nc3ccccc23)cc1	-5%
77	O=C(Nc1cc(C(F)(F)F)ccc1Cl)c1noc2c1CCCCC2	-27%
78	COc1cc(C(=O)CC2(O)C(=O)N(Cc3ccccc3Cl)c3ccccc32)cc(OC)c1OC (stereo not drawn)	?
79	CCN(CC)S(=O)(=O)c1ccc2c(c1)N(CC(=O)Nc1c(C)cccc1C)C(=O)CO2	-2%
80	CN1C(=O)C2CCCCN2c2ccc(C(=O)NCc3ccccc3Br)cc21 (stereo not drawn)	21%

# Some of these compounds in order of heavy-atom count, smallest number first:
no.	SMILES	miR-21 FLuc
68	Cc1cc(F)ccc1Nc1nc2ccccc2n2nnnc12	-14%
67	CSc1ncc2c(n1)-c1ccccc1N(Cc1ccccc1C)S2(=O)=O	-4%
72	COc1ccc(C(=O)Nc2cc(-c3nc4ccccc4s3)ccc2OC)cc1	0%
61	COc1ccc(OC)c(NC(=O)Cn2ccn(-c3ccc(F)cc3)c(=O)c2=O)c1	16%
69	COc1ccc(C)cc1NC(=O)C1CCCN(S(=O)(=O)c2ccc3c(c2)oc(=O)n3C)C1 (stereo not drawn)	1%

# Continuation.
no.	SMILES	miR-21 FLuc
81	CN1C(=O)C2(SCC(=O)N2c2ccc(Cl)cc2)c2ccccc21 (stereo not drawn)	-3%
82	COc1ccc(C)cc1NC(=O)c1oc2ccc(S(=O)(=O)N3CCOCC3)cc2c1C	-1%
83	Cc1ccc(CCNC(=O)C2CCCN(S(=O)(=O)c3ccc4c(c3)oc(=O)n4C)C2)cc1 (stereo not drawn)	-2%
84	CCOc1ccccc1NC(=O)N1CCN(C)c2ncccc21	-10%
85	CCc1ccc(CNC(=O)c2ccc3c(c2)nc2n3CCC(C)C2)cc1 (stereo not drawn)	-17%
86	Cc1ccc(NC(=O)N2CCN(c3nnc(C)c4c(C)n(-c5ccccc5)nc34)CC2)c(Cl)c1	-4%
87	CC(C)CCNC(=O)CSc1nc2ccccc2nc1Cc1ccc(Cl)cc1	0%
88	CN(C)c1ccc(CNC(=O)CN2C(=O)C3CCCCN3c3ccc(C(=O)N4CCCC4)cc32)cc1 (stereo not drawn)	3%
89	CCN(CC)C(=O)Cn1c(=O)n(Cc2ccc(C(=O)NCc3ccc(C)cc3)cc2)c(=O)c2ccccc21	-4%
90	Cc1ccc(Cl)cc1N1CCN(C(=O)c2ccc3c(c2)N(Cc2ccccc2F)C(=O)c2ccccc2S3(=O)=O)CC1	10%
91	COc1cccc(-c2cc(C(=O)Nc3ccc(F)cc3)[nH]n2)c1	-48%
92	COc1ccc(CNC(=O)C2(c3cccs3)CCOCC2)cc1	-4%
93	O=C(CCN1N=C(c2ccccc2)CCC1=O)NCCc1ccc(Cl)cc1	2%
94	Cc1ccc(-c2cn3c(n2)sc2cc(C(=O)NCc4cccs4)ccc23)c(C)c1	4%
95	COc1ccc(-c2c(C)nn3c(C(F)(F)F)cc(C)nc23)cc1OC	20%
96	COc1ccccc1CCNC(=O)C1CCN(c2nc3ccccc3nc2C(F)(F)F)CC1	-2%
97	CCOC(=O)CCc1c(C)nc2c(-c3ccccc3)c(C)[nH]n2c1=O	-5%
98	CCOc1ccccc1CNS(=O)(=O)c1cc(-c2onc(C)c2C)ccc1OC	-8%
99	Cc1cccc(-c2nc(CCNC(=O)c3ccccc3Br)cs2)c1	?
100	CCOC(=O)c1ccc(N2C(=O)c3n[nH]c(-c4ccco4)c3C2c2cccc(F)c2)cc1 (stereo not drawn)	?
101	Cc1cc(Nc2ccc(F)cc2)n2c(nc3ccccc32)c1C#N	-8%
102	COc1ccc(C)cc1NC(=O)c1cc(S(=O)(=O)N2CCc3ccccc3C2)ccc1F	1%
103	CCOc1ccc(C(=O)c2cn(CC(=O)Nc3cccc(OC)c3)c3cc4c(cc3c2=O)OCCO4)cc1	9%
104	CC(CNC(=O)c1cc2ccccn2n1)c1ccccc1 (stereo not drawn)	-39%
105	Cc1cccc(NC(=O)CSc2cn(CC(=O)N3CCOCC3)c3ccccc23)c1	-1%
106	COC(=O)c1ccc(CSCc2ccc(C#N)cc2)cc1	-24%
107	CCc1ccc(CNC(=O)c2cnc(N3CCCCC3)c3ccccc23)cc1	5%
108	O=S(=O)(c1ccc2ccccc2c1)n1nc(-c2ccco2)nc1NCc1cccc(Cl)c1	0%
109	CCc1ccc(NC(=O)CSc2nc3c([nH]c4ccccc43)c(=O)n2-c2ccc(C)cc2)cc1	-8%
